# N370S GC: qHTS Assay for Inhibitors and Activators of N370S glucocerebrosidase as a Potential Chaperone Treatment of Gaucher Disease; Potency, µM (highest dose often 59.4 µM), for inactives: top-dose activity change, negative = inhibition, actives largely listed as inhibitors; N370S GC spleen homogenate, 4MU-glucoside fluorescence; AID 2101, 2009; hit rate 0.092% among 330,000; Lysosomal acid glucosylceramidase (Homo sapiens), P04062; active means well fitted inhibition curve with a large enough effect;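 further: 0% = full enzyme activity and -100% = no enzyme basal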
# Starred values were filed as active, the others as inactive; & = joins results of further samples; [ ] = another dose, or the depositor's remark. Potency means the concentration at half of the fitted maximal effect. Some of the compounds tested, and most or all hits are left out here.
SMILES,N370S GC
O=C(CCc1ccccc1)N1CCN(c2ccc(F)cc2)CC1,-4.7%
COC(=O)c1cc(S(=O)(=O)N2CCN(c3ccc(OC)cc3)CC2)cn1C,-0.1%
CCOC(=O)Nc1ccc2c(CN(C)Cc3ccc(F)cc3)cc(=O)oc2c1,0.7%
Cc1ccc(C)c(S(=O)(=O)N2CCCOC2CNC(=O)C(=O)NC2CCCCC2)c1 (centres undefined),0.6%
O=C1CC[C@@]23CCCN2C(=O)CCCC3C1 (some centres undefined),-2.9%[136 µM]
CCCOC(=O)CSc1nc(N)c(C#N)c(CC)c1C#N,-12.8%
CCOC(=O)N1CCN(C(=O)CCn2nc(-c3ccccc3)ccc2=O)CC1,1.0%
Cc1[nH]c2ccccc2c1/C=C/c1nc2ccccc2c(=O)n1CCO,2.1%
S=c1[nH]ncn1/N=C/c1ccc(N2CCOCC2)cc1,-2.1%
Cc1nn(CC(=O)NCCCN2CCCCC2)c(=O)c2cccn12,-5.0%
CCn1c2ccc(F)cc2c2nnc(SCCN3CCOCC3)nc21,-8.4%
O=C(O)CCC(=O)N1CCc2cc(S(=O)(=O)NC3CCCc4ccccc43)ccc21 (centres undefined),10.8%
CCCOc1ccc(S(=O)(=O)N2C(=O)CC(=O)N(Cc3ccc(OCC)cc3)C2=O)cc1,1.8%
COc1ccc(CN2CCCC(C(=O)c3cccc(C(F)(F)F)c3)C2)cc1O (centres undefined),-7.8%
COc1ccc(NCC(=O)Nc2ccccc2C#N)cc1Cl,-8.2%
CCOC(=O)c1sc2c(c1C)c(=O)c(C(=O)OCC)cn2CC,11.0%
COc1ccc(-n2nc(C(=O)NCC(=O)N3CCCCC3)c3ccccc3c2=O)cc1,-4.6%
COc1ccc2[nH]c(=O)c(CN(C(=O)c3cccnc3)c3ccc(C)cc3C)cc2c1,-9.2%
Cc1ccccc1N1CC(C(=O)Nc2nnc(SCc3cccnc3)s2)CC1=O (centres undefined),-3.2%
CC(=O)Nc1cc(NC(C)=O)cc(C(=O)NCC2(N3CCOCC3)CCCCC2)c1,-2.2%
COCCn1nnnc1C(c1cc2cc(C)ccc2[nH]c1=O)N1CCc2ccccc21 (centres undefined),13.4%
COc1cc(NS(=O)(=O)c2ccc(NS(=O)(=O)c3ccccc3)cc2)nc(OC)n1,7.2%
Cc1cc(/C=C2\SC(=Nc3ccc(N4CCOCC4)cc3)N(C)C2=O)c(C)n1-c1cccnc1,0.2%
Cc1ccccc1-n1c(C)nnc1SCC(=O)NC1CCCc2ccccc21 (centres undefined),14.5%
Cc1c(C(=O)N2CCOCC2)sc2ncnc(N3CCc4ccccc4C3)c12,0.8%
COc1ccc(OCC(O)CNC(=O)/C=C/c2cccc([N+](=O)[O-])c2)cc1 (centres undefined),-7.0%
CCN(CC)S(=O)(=O)c1cccc(C(=O)NC(C(=O)NC2=NCCS2)C(C)C)c1 (centres undefined),8.0%
Cn1c(=O)[nH]c(=O)c2c1nc(NCCCO)n2CCOc1ccccc1,-16.1%
COc1ccc(-c2nn3c(-c4ccc(F)cc4)nnc3s2)cc1,-13.0%
COC(=O)c1sc(NC(=O)/C=C/c2ccc(C)o2)nc1C,-12.3%
CCOC(=O)Cn1c(C)cc(=O)c2cccc(C)c21,-7.3%
CC(=O)NC1CCN(C(=O)N2CCCC2)CC1,-6.1%
CCOc1ccc(CCNC(=O)CS(=O)Cc2nc(-c3ccc(C)cc3)oc2C)cc1OCC (centres undefined),5.0%
O=C(O)c1cc(-c2cccc([N+](=O)[O-])c2)n[nH]1,0.0%
Cc1ccn(CCC(=O)NC2CCCc3c2cnn3-c2cccc(C)c2C)n1 (centres undefined),0.6%
c1ccc2c(c1)nnn2Cc1nnc2sc(-c3ccc4c(c3)OCCO4)nn12,-14.1%
CC1c2c([nH]c3ccccc23)CCC1C(=O)O (centres undefined),-11.0%
COCC(C)N=C1NN=C(c2ccc(NC(C)=O)cc2)CS1 (centres undefined),-2.8%
Cc1ccc(C2CC(=O)C=C(NCC(C)C)C2)cc1 (centres undefined),3.8%
C/C(=C(\C#N)C(=O)NCCCN1CCOCC1)N(C)C,2.2%
O=C1CC(c2cc(-c3ccccc3)no2)C1,-1.6%
CCCCCOc1ccc(NC2=CC(=O)CCC2)cc1,-28.3%
COc1ccc(NC(=O)CSc2nnc(Cc3ccc(C)cc3)c(=O)n2N)cc1OC,7.9%
CCOC(=O)c1sc(NC(=O)c2ccc(CC)s2)nc1C,4.3%
Cc1ccccc1C(=O)NCCNc1ccc([N+](=O)[O-])cc1,-23.9%

# Rewritten with bars between the fields: part of the list above
canonical_smiles | N370S GC
COc1cc(NS(=O)(=O)c2ccc(NS(=O)(=O)c3ccccc3)cc2)nc(OC)n1 | 7.2%
Cc1cc(/C=C2\SC(=Nc3ccc(N4CCOCC4)cc3)N(C)C2=O)c(C)n1-c1cccnc1 | 0.2%
Cc1ccccc1-n1c(C)nnc1SCC(=O)NC1CCCc2ccccc21 (centres undefined) | 14.5%
Cc1c(C(=O)N2CCOCC2)sc2ncnc(N3CCc4ccccc4C3)c12 | 0.8%
COc1ccc(OCC(O)CNC(=O)/C=C/c2cccc([N+](=O)[O-])c2)cc1 (centres undefined) | -7.0%
CCN(CC)S(=O)(=O)c1cccc(C(=O)NC(C(=O)NC2=NCCS2)C(C)C)c1 (centres undefined) | 8.0%
Cn1c(=O)[nH]c(=O)c2c1nc(NCCCO)n2CCOc1ccccc1 | -16.1%
COc1ccc(-c2nn3c(-c4ccc(F)cc4)nnc3s2)cc1 | -13.0%
COC(=O)c1sc(NC(=O)/C=C/c2ccc(C)o2)nc1C | -12.3%
CCOC(=O)Cn1c(C)cc(=O)c2cccc(C)c21 | -7.3%
CC(=O)NC1CCN(C(=O)N2CCCC2)CC1 | -6.1%
CCOc1ccc(CCNC(=O)CS(=O)Cc2nc(-c3ccc(C)cc3)oc2C)cc1OCC (centres undefined) | 5.0%
O=C(O)c1cc(-c2cccc([N+](=O)[O-])c2)n[nH]1 | 0.0%
Cc1ccn(CCC(=O)NC2CCCc3c2cnn3-c2cccc(C)c2C)n1 (centres undefined) | 0.6%
c1ccc2c(c1)nnn2Cc1nnc2sc(-c3ccc4c(c3)OCCO4)nn12 | -14.1%
CC1c2c([nH]c3ccccc23)CCC1C(=O)O (centres undefined) | -11.0%
COCC(C)N=C1NN=C(c2ccc(NC(C)=O)cc2)CS1 (centres undefined) | -2.8%
Cc1ccc(C2CC(=O)C=C(NCC(C)C)C2)cc1 (centres undefined) | 3.8%
C/C(=C(\C#N)C(=O)NCCCN1CCOCC1)N(C)C | 2.2%
O=C1CC(c2cc(-c3ccccc3)no2)C1 | -1.6%
CCCCCOc1ccc(NC2=CC(=O)CCC2)cc1 | -28.3%
COc1ccc(NC(=O)CSc2nnc(Cc3ccc(C)cc3)c(=O)n2N)cc1OC | 7.9%
CCOC(=O)c1sc(NC(=O)c2ccc(CC)s2)nc1C | 4.3%
Cc1ccccc1C(=O)NCCNc1ccc([N+](=O)[O-])cc1 | -23.9%

# (listing goes on)
SMILES,N370S GC
ClCC1NCC(c2ccccc2Cl)c2c1[nH]c1ccccc21 (centres undefined),-14.7%
CSCCC(NS(=O)(=O)c1cccc(C(F)(F)F)c1)C(=O)N(C)Cc1ccc2c(c1)OCCO2 (centres undefined),-2.9%
C[C@H]1[C@H](NC(=O)/C(=N/OC(C)(C)C(=O)O)c2csc(N)n2)C(=O)N1S(=O)(=O)O (stereo in doubt),-11.8%[21.6 µM]
CCOc1ccc(C(=O)CN2CCN(S(=O)(=O)c3ccc(Br)cc3)CC2)cc1,6.7%
O=C(c1ccccc1)c1sc(N2CCOCC2)nc1-c1ccccc1,20.7%
O=C(Nc1ccccc1)Nc1nnc(-c2cccs2)s1,4.9%
N#CCCn1cc(/C=N/NC(=O)c2ccncc2)c(-c2ccccc2)n1,-1.5%
COc1ccc(OC)c2sc(NC(=O)C3CC3)nc12,-2.7%
COc1ccc(C)cc1N=Nc1ccc(O)c2ncccc12,12.3%
O=C(CCn1nnc2ccccc2c1=O)N[C@@H](Cc1ccccc1)C(=O)O,-0.1%
O=C1CCC/C(=N/NC(=O)c2sc3ccccc3c2Cl)C1,7.0%
O=C(Nc1cccnc1)c1cc(-c2ccc(Cl)cc2)on1,-7.9%
CN1C2CCC1CC(OC(=O)C(CO)c1ccccc1)C2 (centres undefined),2.9%&-7.2%&-0.9%&1.5%&4.8%&-2.0%&-3.3%
NC(=O)CSc1nnc(-c2ccncc2)n1CCc1ccccc1,-2.8%
CC(C)c1nc2cc(C(=O)N(C)Cc3ccc(F)cc3)ccc2o1,-7.4%
Cc1c(C(=O)N2CCN(c3ccc([N+](=O)[O-])cc3)CC2)sc2ncn(CC(=O)N3CCOCC3)c(=O)c12,4.5%
CCOC(=O)c1ccc(NC(=O)N2C3CCCC2CC(NC(C)=O)C3)cc1 (centres undefined),-7.9%
COc1ccccc1CCn1c(N)cc(=O)[nH]c1=O,-6.3%
O=C1CSC(c2ccco2)N1 (centres undefined),8.5%
CCOC(=O)CSc1n[nH]c(NS(=O)(=O)c2ccccc2C(F)(F)F)n1,-21.6%
COc1cccc(-c2nnc(SCC(=O)N3CC(C)CC(C)C3)o2)c1 (centres undefined),-1.5%
Cc1ccc(Cl)cc1N=C(N)N=C(N)N,-2.1%
CC(C)(C)C1=Nn2c(nnc2-c2ccccc2F)SC1,1.7%
CCOc1ccc(C(=O)C2CCN(C(=O)c3ccccc3C(=O)O)CC2)cc1,-21.2%
O=C(N/N=C/c1sc(N2CCCCC2)nc1-c1cccs1)c1cccnc1,-19.9%
CC(=O)OCCn1c(Br)nc2c1c(=O)[nH]c(=O)n2C,6.4%
COc1ccc(OC)c(NC2=NC3(CCCCC3)N=C(N)N2)c1,1.7%
Cc1ccc(S(=O)(=O)Nc2ccc3c(c2)CCC3)cc1,-0.5%
COc1ccc(S(=O)(=O)N(C)CC(=O)Nc2ccc3c(c2)OCO3)cc1OC,1.3%
CC1Cc2ccccc2N1C(=O)CSc1nnc(-c2ccc(S(=O)(=O)N3CCOCC3)cc2)n1C (centres undefined),-5.4%
CCc1c(C)[nH]c2ccc(C)cc2c1=O,3.3%
CC(C(=O)N(C)C1CCCCC1)N1CCC(C(N)=O)CC1 (centres undefined),-3.3%
Cc1nnc(NC(=O)CCC(=O)NCc2cccs2)s1,-0.5%
Cc1cc2ncn(CCOc3ccccc3)c2cc1C,7.8%
CCOn1c(=O)c(-c2cccc([N+](=O)[O-])c2)[n+]([O-])c2ccccc21,-7.0%
COCCn1c(C)cc(/C=C2/NC(=O)N(Cc3ccc(C)cc3)C2=O)c1C,-5.7%
COc1cc(CNCc2ccc(OC)cc2OC)cc(OC)c1,-15.9%
O=C(NNC(=O)C1CC1)c1cc2cc3ccccc3nc2s1,13.4%
Cc1nnc(Nc2ccc(Cl)cc2)n(N)c1=O,1.2%
Cn1c(-c2ccccc2)cnc1NCc1cc2c(cc1[N+](=O)[O-])OCO2,6.9%
CC(C(=O)Nc1ccccc1Br)c1ccc([N+](=O)[O-])cc1 (centres undefined),2.6%
CC(C)(C)C(=O)Nc1ccc(-c2cn3ccsc3n2)cc1,-6.1%
CC1(C)N([O-])c2cc([N+](=O)[O-])ccc2[N+]1=O,-7.0%
C=CCN1C(=O)/C(=C2/Sc3ccccc3N2C)SC1=Nc1c(C)n[nH]c1C,6.3%
CCCCN(CCCC)CCn1cnc2c([nH]c3ccc(OC)cc32)c1=O,18.4%
O=C(O)c1cccc(S(=O)(=O)Nc2ccc(OCc3ccccc3)cc2)c1,4.1%
CSC(=NC#N)N1CCN(c2ccc(Cl)cc2)CC1,4.8%
O=C(CCc1cn(Cc2ccc(F)cc2)c2ccccc12)N1CCOCC1,0.9%
O=C(CCc1nnc2ccc(NCc3ccco3)nn12)Nc1cc(F)ccc1F,-8.1%
CN(C)CC(C)(C)CNS(=O)(=O)CC12CCC(CC1=O)C2(C)C (centres undefined),1.3%
COc1cccc(C(=O)/C=C/Nc2ccc(NC(C)=O)cc2)c1,7.0%
CCOC(=O)c1[nH]ncc1CN1CCCC(C(=O)c2ccc(SC)cc2)C1 (centres undefined),-2.6%
CC(C)c1nc(CNC(=O)c2ccc(OC3CCN(Cc4ccccn4)CC3)cc2)cs1,-1.2%
COCCNC(=O)C(c1ccc(F)cc1)N(Cc1ccco1)C(=O)CCC(=O)Nc1ccccn1 (centres undefined),-10.8%
CCc1nnc(NC(=O)CCC(=O)NCc2ccccc2Cl)s1,-6.6%
CCOC(=O)c1cnn(Cc2ccc(C)cc2)c1N,0.3%
Cc1cc(SCC(=O)OCC(=O)c2c(N)n(C)c(=O)n(C)c2=O)c(C)cc1Br,8.4%
Cc1ccccc1NC(=S)NC1(C)CCS(=O)(=O)C1 (centres undefined),-3.6%
O=S(=O)(Cc1ccc(Cl)cc1)N1CCN(c2ncccn2)CC1,-4.8%
Cn1c(=O)c(NCCO)c2c3c(cccc31)C(=O)c1ccccc1-2,6.9%

# Arranged by value in N370S GC (descending): some entries from above
SMILES,N370S GC
CC(C)c1nc(CNC(=O)c2ccc(OC3CCN(Cc4ccccn4)CC3)cc2)cs1,-1.2%
O=S(=O)(Cc1ccc(Cl)cc1)N1CCN(c2ncccn2)CC1,-4.8%
CCc1nnc(NC(=O)CCC(=O)NCc2ccccc2Cl)s1,-6.6%

# Compound activity as filed in PubChem.
